Mtb betalactam: beta-lactam sensitization of Mtb H37Rv, H37Rv | 330,000 tested, 0.27% active | M. tuberculosis H37Rv growth with meropenem, percent inhibition; hits of this screen are not shown here | inhibition, % at 25 µM;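 active means about 74% or more and at least 40 points above the plate without the antibiotic, then above 30% in a dose series; inconclusive means first-round hits that could not be retested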;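 further: growth measured after seven days incubation then overnight dye step; 0% = bacteria only wells and 100% = bacteria with antibiotic; twin plates without the antibiotic show which effects depend on it; some results filed as inactive read as strong as hits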
YopH inh: YopH tyrosine phosphatase inhibitors, primary screen, biochemical, fluorescence Ex485/Em525; 140,000 tested, 0.16% active; YopH tyrosine phosphatase [Yersinia enterocolitica]; inhibition, %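 (about 10 µM by stock and volumes)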;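 active means inhibition of 50% or more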;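 further: controls were vehicle for no effect and minimum signal wells for full effect; inactives centre near -20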
Mtb growth: M. tuberculosis H37Rv growth inhibitors, H37Rv strain (AID 1626); M. tuberculosis H37Rv growth inhibition; higher % means a stronger effect; one-dose inhibition, % at 10 µM; IC50 in µM for titrated hits; 220,000 tested, 0.95% active;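 active means confirmed in a dose series; inconclusive means inhibition above 80% but not taken into the dose series; inactive means below 80% or under 30% at every dose of the series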;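 further: bacteria incubated seven days before Alamar blue readout; 0% = bacteria only wells and 100% = bacteria with antibiotic wells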
RecA splice inh: Mtb RecA intein splicing inhibitors, primary screen, biochemical, fluorescence, HTS | inhibition, %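 (about 9 µM by stock and volumes)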 | cell-free RecA intein splicing | 290,000 tested, 0.75% active; in the data active means inhibition above about 30%; inconclusive means no clear call, values can overlap the other calls;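 further: 0% = vehicle wells and 100% = reference inhibitor control wells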
Target sequence (P9WHJ3 whole entry, looked up, canonical isoform): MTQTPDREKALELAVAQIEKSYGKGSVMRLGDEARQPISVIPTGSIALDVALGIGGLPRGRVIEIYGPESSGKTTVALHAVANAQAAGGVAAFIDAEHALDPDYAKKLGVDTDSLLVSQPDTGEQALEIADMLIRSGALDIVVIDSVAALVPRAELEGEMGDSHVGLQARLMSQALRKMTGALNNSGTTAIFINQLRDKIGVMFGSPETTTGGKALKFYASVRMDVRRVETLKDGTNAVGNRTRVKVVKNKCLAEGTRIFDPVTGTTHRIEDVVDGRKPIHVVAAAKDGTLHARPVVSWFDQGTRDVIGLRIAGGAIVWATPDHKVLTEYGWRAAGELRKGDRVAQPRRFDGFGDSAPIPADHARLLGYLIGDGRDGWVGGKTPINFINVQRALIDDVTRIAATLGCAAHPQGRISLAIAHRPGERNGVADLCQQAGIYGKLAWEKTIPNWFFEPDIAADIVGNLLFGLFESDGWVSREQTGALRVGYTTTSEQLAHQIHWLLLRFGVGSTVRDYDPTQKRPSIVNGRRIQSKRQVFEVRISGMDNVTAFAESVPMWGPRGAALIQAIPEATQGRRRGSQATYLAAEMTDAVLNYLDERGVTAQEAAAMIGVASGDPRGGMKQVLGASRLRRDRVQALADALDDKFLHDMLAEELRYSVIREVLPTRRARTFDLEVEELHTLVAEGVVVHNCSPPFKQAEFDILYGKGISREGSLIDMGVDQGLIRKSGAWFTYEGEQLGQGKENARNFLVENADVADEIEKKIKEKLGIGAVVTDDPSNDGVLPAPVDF
Arbovirus inh: antivirals against arbovirus infection, primary screen, cell-based, full library, 10K replicate subset. arbovirus infection cell-based antiviral screen. inhibition, % at 10 µM. 200,000 tested, 0.37% active;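 active means inhibition from about 30%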;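 further: bluetongue infection of BSR cells; cell survival read as ATP light after 72 h; 0% = infected wells without compound and 100% = uninfected wells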
Arbovirus inh repeat: recorded beside Arbovirus inh, whose call it bears; inhibition, %; measured here: 10K subset replicate screen; many hits read low in the repeat;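 first of two repeat runs on a subset; 0% = infected and 100% = uninfected wells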
* = called active by the depositor; ? = inconclusive; nt = not tested or not shown; & = joins results of further samples. Only part of the results is shown; count on the stated rates, not on these rows.

SMILES | Mtb betalactam | YopH inh | Mtb growth | RecA splice inh | Arbovirus inh | others
c1ccc(-c2[nH]ncc2-c2nc3ccccc3[nH]2)cc1 | -1.3 | -7.0 | -4.8% | 0.6 | 5.2
COc1ccc(NC(=O)c2sc(NC(=O)C3CC3)nc2C)cc1 | -1.9 | nt | nt | -0.2 | nt
NC(=O)CSc1nc(-c2ccccc2Cl)ns1 | -3.8 | -25.4 | -12.5% | nt | 6.0
O=S(=O)(NCc1nnc2c(C(F)(F)F)cc(Cl)cn12)c1ccccc1 | -5.7 | nt | nt | 0.6 | nt
CSc1ccccc1NC(=O)c1noc2c1CCC2 | -1.3 | -30.7 | -7.4% | 9.8 | -1.0
Cc1ccc2c(c1)c1nc3ccccc3nc1n2C | 33.9 | nt | nt | -1.4 | nt
CN(CC(=O)NCc1ccc(Cl)cc1)S(=O)(=O)c1cccs1 | -2.1 | nt | nt | -4.6 | nt
Cc1nn2c(nc1=O)NNC2(C)C(C)(C)C (centres undefined) | -9.3 | nt | 2.1% | -2.2 | 2.6
CCn1c(COc2ccccc2)nnc1SCC(=O)NC1CC1 | -9.7 | nt | nt | -0.7 | nt
Cc1ccc(N2C(=O)CC(Cn3nc(C)cc3C)C2=O)cc1 (centres undefined) | 4.0 | -31.6 | nt | -3.1 | 4.7
CC(=O)C1=C(O)C(=O)N(Cc2ccco2)C1c1ccc2c(c1)OCO2 (centres undefined) | -5.3 | -47.6 | -9.0% | 1.0 | 4.0
O=C(CN1C(=O)CC(c2ccccc2)S(=O)(=O)c2ccccc21)NC1CCCC1 (centres undefined) | 5.5 | nt | 8.7% | nt | 3.9
CCOC(=O)C1CCN(Cc2cnc(Oc3ccc(C(C)(C)C)cc3)s2)CC1 | 79.8 | -12.1 | -3.1% | 8.2 | -2.9
O=C(Cn1cc([N+](=O)[O-])cn1)NCCc1nc2ccccc2[nH]1 | -4.1 | nt | nt | 0.3 | -1.4
Cc1ccc(C(=O)Nc2nc(=O)[nH]s2)cc1 | -3.6&1.9 | nt | 3.9%&-0.5% | 3.7&1.7 | 9.7&-1.0
COc1cccc(CNC(=O)c2ccc(N3CCOCC3)c([N+](=O)[O-])c2)c1 | -0.1 | nt | nt | -1.0 | nt
NC(=O)CCS(=O)(=O)c1ccccc1 | 1.8 | -45.6 | 6.6% | -0.5 | -1.9
Cc1ccc2c(CC(=O)NNC(=O)c3ccccc3O)coc2c1 | -1.2 | nt | nt | -0.1 | nt
O=C1CC(N2CCN(c3nc4ccccc4s3)CC2)C(=O)N1Cc1cccs1 (centres undefined) | -14.0 | -39.3 | 2.9% | 5.7 | 13.0
CC1=C(C)Cc2c(OC(=O)c3ccccc3)ccc(OC(=O)c3ccccc3)c2C1 | -2.0 | nt | -9.7% | 0.0 | nt
CCc1ccc2c(c1)C1(NN=C(c3ccc(C)cc3)S1)C(=O)N2 (centres undefined) | 1.5 | -29.0 | 3.8% | -11.1 | -33.9
COc1ccc(/C=C/C(=O)Nc2cc(F)ccc2C)cc1S(=O)(=O)N1CCOCC1 | 0.4 | nt | 4.8% | 1.2 | 8.4
O=C(c1ccc2c(c1)N(Cc1ccccc1)C(=O)c1ccccc1S2)N1CCCC1 | -3.5 | -30.1 | 7.2% | 7.0 | 8.3
Cc1cccc(-n2c(O)c(C=NC3CCS(=O)(=O)C3)c3ccccc3c2=O)c1C (centres undefined) | -1.4 | nt | nt | -1.6 | nt
CC1=CC(C)(C)Nc2ccc(OC(=O)c3cccnc3)cc21 | 4.4 | -0.5 | -2.0% | -11.1 | -45.1
O=C(Cn1cnc2ccccc21)N/N=C/C(Br)=C/c1ccccc1 | 5.7 | -12.6 | 5.9% | 2.1 | 4.3
O=C(O)c1ccc(Cn2nnc3sc4c(c3c2=O)CCCC4)cc1 | -5.5 | nt | -5.3% | -2.0 | 17.7
CCOC(=O)Cn1c(=N)n(Cc2ccccc2F)c2ccccc21 | -9.5 | -40.8 | -4.0% | nt | -0.6
COC(=O)c1ccc2c(=O)n(Cc3ccc4c(c3)OCO4)c(=S)[nH]c2c1 | -1.4 | nt | nt | -0.2 | nt
CCCc1ccc(C2C3=C(CC(C)(C)CC3=O)NC3=C2C(=O)c2ccccc23)cc1 (centres undefined) | 99.5 | -22.6 | 5.54µM* | 27.2 | -22.2
O=C1C=C(c2cccc(O)c2)CCC1 | 98.0 | nt | 54.2% | -1.5 | nt
Cc1cccn2c(=O)c3c(nc12)N1CCCCC1C1(C3)C(=O)N(C)C(=O)N(C)C1=O (centres undefined) | -8.3 | nt | -0.9% | 0.0 | nt
COc1ccc(CC(NC(C)=O)C(=O)NC2CCN(c3nc(C)cc(C)c3C#N)CC2)cc1OC (centres undefined) | 2.5 | nt | 3.2% | 2.6 | -3.1
Cc1ccc(C(=O)c2ccccc2C(=O)OCC(=O)NCC2CCCO2)cc1 (centres undefined) | -4.0 | nt | -3.9% | -10.6 | 2.4
Cc1ccc(S(=O)(=O)N2CCOCC2)cc1C(=O)Nc1cccc(S(=O)(=O)N2CCCC2)c1 | 2.4 | nt | 3.7% | 0.9 | 17.1
Nc1nonc1-n1nnc(C(=O)N/N=C/c2ccccc2F)c1CN1CCc2ccccc21 | 2.8 | nt | nt | 0.9 | nt
CCN(CC)S(=O)(=O)c1ccc(N2CCCCC2)c(NC(=O)/C=C/c2cc(OC)c(OC)c(OC)c2)c1 | 2.0 | -27.5 | 13.5% | -0.1 | 5.4
CCN(CC)CCCNCC(=O)Nc1ccc(OC)c(Cl)c1 | -2.5 | nt | nt | -4.3 | nt
COc1ccc2nc(NC(=O)c3sc4nc(C)cc(C)c4c3N)sc2c1 | 1.1 | nt | 2.2% | -6.0 | nt
Cc1nc(-c2cccc3ccccc23)ccc1C(=O)O | 1.2 | -53.2 | -5.9% | 0.0 | 11.1
CC(=O)c1cccc(NC(=O)c2oc(C)nc2C)c1 | nt | -10.1 | -5.5% | -0.4 | -0.5
CN(C)C1(CNC(=O)C2CCN(S(=O)(=O)c3c(Cl)cccc3Cl)CC2)CCCCC1 | -2.3 | nt | nt | -2.4 | nt
O=C1/C(=C/c2ccncc2)Oc2cc(OS(=O)(=O)c3ccccc3)ccc21 | 86.6 | nt | 21.6% | nt | nt
O=C(NNc1ccc(-c2csnn2)cc1)c1cc(Cl)cc(Cl)c1 | 96.6 | nt | 27.1% | 2.5 | nt
CC(C)C[C@@H](COc1ccccc1)N1CCN(Cc2ccccc2)CCC1=O | -8.8 | nt | nt | 2.8 | nt
NC(=O)C1CCN(C(=O)CCNS(=O)(=O)c2cc(Br)cnc2N)CC1 | ? | nt | nt | 4.1 | nt
Clc1ccc(N2CCN(Cc3ccc(Br)o3)CC2)cc1 | -0.9 | nt | nt | 7.4 | nt
Cc1cc(C)n(CCC(=O)N=Nc2c(O)[nH]c3ccccc23)n1 | -8.3 | nt | -13.5% | -2.9 | nt
CN(NS(=O)(=O)c1ccccc1)c1nc2ccccc2nc1C(F)(F)F | -5.8 | -5.2 | -6.8% | -1.3 | -9.2
O=C1c2ccccc2C(=Nc2ccccc2)C1c1cccc(Br)c1 (centres undefined) | 10.5 | -27.5 | 7.7% | -11.3 | 2.9
Cc1nn(-c2ccccc2)nc1C(=O)Nc1nnc(C(F)(F)F)s1 | -9.6 | nt | -0.1% | 0.4 | nt
Cc1ccc(N2C(=O)NC(=O)/C(=C\c3ccc([N+](=O)[O-])o3)C2=O)cc1 | 2.7 | nt | 7.4% | 1.5 | 4.9
COc1cc(C=C2C(=O)NC(=O)NC2=O)ccc1O | 4.2 | nt | -10.8% | 0.7 | nt
Cc1cc(N2CCOCC2)nc(SCC(=O)c2ccc(Cl)cc2)n1 | 1.9 | -4.5 | -4.2% | -1.2 | 8.9
COc1ccc(NC(C)=O)cc1C#N | -2.5 | nt | 0.8% | 0.4 | 7.4
O=C(Nc1ccccc1Br)C1CCC(=O)N1Cc1ccccc1Cl (centres undefined) | 10.5 | -8.0 | 0.9% | 0.2 | -3.2
NC(=NCCc1ccccc1)NS(=O)(=O)c1ccc(F)cc1 | 2.4 | -11.2 | -1.2% | 5.4 | 1.5
COc1ccc(NC2CCCN(C(=O)c3csc(C)n3)C2)cc1 (centres undefined) | -2.0 | nt | nt | -5.4 | nt
CSc1ncccc1C(=O)NCC(=O)Nc1ccc(F)c(F)c1 | -10.3 | nt | nt | 0.1 | nt
C=CCNC(=O)COC(=O)c1ccccc1C(=O)N(C)C1CCCCC1 | 5.7 | -41.0 | 5.5% | nt | 6.8

Reprinted at random: four entries already listed, in no set order.
SMILES | Mtb betalactam | YopH inh | Mtb growth | RecA splice inh | Arbovirus inh | others
COC(=O)c1ccc2c(=O)n(Cc3ccc4c(c3)OCO4)c(=S)[nH]c2c1 | -1.4 | nt | nt | -0.2 | nt
Cc1cccc(-n2c(O)c(C=NC3CCS(=O)(=O)C3)c3ccccc3c2=O)c1C (centres undefined) | -1.4 | nt | nt | -1.6 | nt
CCn1c(COc2ccccc2)nnc1SCC(=O)NC1CC1 | -9.7 | nt | nt | -0.7 | nt
NC(=O)CSc1nc(-c2ccccc2Cl)ns1 | -3.8 | -25.4 | -12.5% | nt | 6.0

Back to the main list with the 2 entries that preceded the break.
SMILES | Mtb betalactam | YopH inh | Mtb growth | RecA splice inh | Arbovirus inh | others
CSc1ncccc1C(=O)NCC(=O)Nc1ccc(F)c(F)c1 | -10.3 | nt | nt | 0.1 | nt
C=CCNC(=O)COC(=O)c1ccccc1C(=O)N(C)C1CCCCC1 | 5.7 | -41.0 | 5.5% | nt | 6.8
O=C(CSc1nnc(CNC(=O)c2ccccc2)o1)Nc1nccs1 | -10.5 | nt | nt | 3.3 | nt
O=S(=O)(Nn1cnnc1)c1ccc(F)cc1 | -2.7 | nt | -3.9% | -0.9 | 3.6
CCOC(=O)c1ccccc1NC(=O)c1cccc2c1C(=O)N(C1CCN(C(=O)OCC)CC1)C2 | 1.2 | -5.4 | -2.0% | -1.2 | -0.8
CCC1CCCCN1CCCNC(=O)CCC(=O)N1CC(C)Oc2ccccc21 (centres undefined) | -1.8 | nt | nt | -3.0 | nt
CC(=O)NCCC(=O)Nc1nc(-c2ccccc2Cl)cs1 | -6.1 | nt | 6.6% | -0.1 | 0.7
O=C(CN1C(=O)c2cccnc2Oc2ccc(Cl)cc21)NCCC1=CCCCC1 | ? | nt | nt | 0.0 | nt
O=C1CCC(=O)N1CC(=O)N(c1ccccc1)c1ccccc1 | -3.8 | nt | 5.4% | 2.5 | -6.8
Cc1csc(NC(=O)CSc2nnnn2C)n1 | 1.4 | -2.6 | 4.3% | -1.1 | 1.5
CCOC(=O)c1c(C)[nH]c(C(=O)COC(=O)c2cnc(C)cn2)c1C | -1.6 | -32.9 | -3.1% | -1.1 | 9.1
CCOC(=O)N1CCC(NC(=O)Cn2c3c(c(-c4ccccc4Cl)cc2=O)CCC3)CC1 | -3.6 | -15.3 | -2.4% | -0.2 | 4.9 | Arbovirus inh repeat=11.6
Cc1c(C(=O)OCC(=O)c2ccc3c(c2)OCCO3)oc2ccccc12 | -1.8 | -21.1 | 38.9% | -2.2 | 0.5
CCNc1nc(NC(C)C)nc(ON=C(C)C)n1 | 0.1 | -20.8 | -0.9% | -0.5 | -16.2
O=C(Nc1ccc(F)cc1)C1CCC(CNc2c(N3CCCCC3)c(=O)c2=O)CC1 (centres undefined) | -9.4 | nt | -4.2% | -3.7 | nt
Cc1cc(N2CCN(c3ccccc3Cl)CC2)n2cc(-c3ccccc3)nc2n1 | 3.8 | -17.0 | 14.5% | 6.1 | 4.3
CC1(C(=O)NCCc2c[nH]c3ccccc23)C=CCN1C(=O)c1ccccc1 (centres undefined) | -7.4 | -28.9 | -9.9% | -0.7 | 12.8
O=C(COC(=O)CNC(=O)c1ccccc1)Nc1ccc(F)c([N+](=O)[O-])c1 | 0.3 | nt | -13.6% | 1.1 | 5.7
O=C(CS)Nc1ccc2ccccc2c1 | 12.2 | nt | -9.1% | 1.6 | nt
COc1ccc(OCc2nc(N)nc(Nc3ccc(C)cc3)n2)cc1 | 4.2 | 23.3 | -6.3% | 0.0 | -1.8
CCn1c(O)c(/C=C/C=C/C=Nc2ccccc2)sc1=S | 3.2 | nt | -2.7% | 3.1 | 21.8
CCOC(=O)c1c(C)[nH]c(C(=O)COC(=O)/C=C/c2cccc(OC)c2OC)c1C | 2.0 | -32.0 | -3.6% | 2.0 | -8.1
CCN(CC)C(NC(=O)Cc1ccccc1)C(Cl)(Cl)Cl (centres undefined) | -14.2 | 2.3 | -7.3% | 1.5 | 13.4
COc1cccc(NC(=S)N2CCc3cc(OC)c(OC)cc3C2)c1 | -0.2 | nt | -0.7% | -4.6 | nt

Screening results from PubChem BioAssay.
